GLA inh pH 4.5 = qHTS Assay for Inhibitors of Human alpha-Galactosidase at pH 4.5. Alpha-galactosidase A (Homo sapiens), P06280. purified enzyme, 4-MU-alpha-Gal fluorescence, pH 4.5. activity change, negative = inhibition, % at 105 µM. 230,000 tested, under 10 active. AID 1467, 2008; inconclusive = small, poorly fitted or top-dose-only inhibition, or a rising curve; inactive = flat fitted curve, though single readings scatter; no compound was filed as active;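 note: 0% = full activity with enzyme and -100% = basal without enzyme; dose as in the result columns while the protocol names 77 µM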
Target sequence (P06280 whole entry, looked up): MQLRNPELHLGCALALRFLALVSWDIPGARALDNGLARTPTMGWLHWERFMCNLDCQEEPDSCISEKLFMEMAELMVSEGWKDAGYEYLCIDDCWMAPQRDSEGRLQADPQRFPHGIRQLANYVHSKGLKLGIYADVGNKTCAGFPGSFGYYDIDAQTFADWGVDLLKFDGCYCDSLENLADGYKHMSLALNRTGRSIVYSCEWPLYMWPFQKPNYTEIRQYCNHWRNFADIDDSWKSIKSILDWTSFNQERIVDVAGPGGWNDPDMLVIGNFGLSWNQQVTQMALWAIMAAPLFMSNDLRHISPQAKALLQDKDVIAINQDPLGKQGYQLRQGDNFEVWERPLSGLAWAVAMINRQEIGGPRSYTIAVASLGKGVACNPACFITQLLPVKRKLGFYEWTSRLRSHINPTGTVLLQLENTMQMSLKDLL
miR-21 FLuc = qHTS Assay for Modulators of miRNAs and/orActivators of miR-21; HeLa miR-21 FLuc reporter, luciferase, 48 h; Potency, µM (series often up to 38.3 µM), for the others: top-dose reporter change, positive = more light; 340,000 tested, under 10 active; active = well fitted rising curve with a large enough effect; inconclusive = small, poorly fitted or top-dose-only effect; inactive = no such curve, though single readings can be large or run the other way;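 note: % of control where 0% means no effect; miR-21 action dims this reporter so a rising signal means less miR-21 action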
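HeLa miR-21-FLuc reporter line, endogenous miR-21; 2000 cells/well in DMEM/10% FBS; compound titration up to ~40uM final, 48 h, 37 degree Celsius; luciferase detection reagent, 15 min lysis, CCD luminescence.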
Rango-impB inh = qHTS Assay for Inhibitors of Rango (Ran-regulated importin-beta cargo) - Importin beta complex formation | Importin subunit beta-1 (Homo sapiens), Q14974 | Rango CFP/YFP FRET sensor + importin beta, 45 min | Potency, µM (series often up to 92.2 µM), for the others: at the top dose inhibition of complex formation | hit rate 0.031% among 340,000 | AID 540263, 2011; active = rising FRET ratio curve, often small or poorly fitted; inconclusive = mostly compound fluorescence or quenching in the first reads; inactive = flat curves in all reads;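 note: potency is the fitted concentration of half-maximal effect; 0% = DMSO wells and 100% = buffer wells lacking importin beta; nearly all actives have a fitted effect of over 15% in size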
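Inhibition scored from the CFP 486 nm/YFP 530 nm FRET ratio 45 min after adding 0.125 microM importin beta to 50 nM Rango biosensor preincubated 5 min with compound (room temperature, PBS with DTT, Tween-20, BSA). No-importin wells as positive control.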
Rango dissoc inh = qHTS Assay for Inhibitors of RanGTP induced Rango (Ran-regulated importin-beta cargo) - Importin beta complex dissociation; hit rate 0.071% among 340,000; Potency, µM (highest dose often 46.1 µM), inactives show at the top dose activity change, negative = inhibition; Snurportin-1 (Homo sapiens) + GTP-binding nuclear protein Ran (Homo sapiens) + Importin …; AID 540253, 2011; Biochemical FRET Rango-importin beta, RanGTP-induced dissociation; active means falling FRET ratio curve, often poorly fitted, with flat reads before Ran was added; inconclusive means other falling curves, or compound fluorescence or quenching; inactive means flat or rising ratio curve;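 note: potency is the fitted concentration of half-maximal effect; % of control where 0% means no effect; nearly all actives have a fitted effect of over 45% in size; -100% = wells without RanGTP and RCC1; the record marks most hits as doubtful in a second field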
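Compounds sat 5 min at room temperature with 0.1 uM Rango biosensor plus 0.25 uM importin beta, then FRET pre-read. RanGTP-RCC1 (0.6 uM Ran, 2mM GTP, 0.2 uM RCC1) added for 45 min, and the CFP/YFP post-read measured blocked complex dissociation.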
The depositor's hits bear a star; u = inconclusive; x = no result given; & = joins results of further samples; [ ] = another dose, or the depositor's remark.

1. CCOc1cccc(C2C(C#N)=C(N)Oc3cc(C)n(Cc4ccccn4)c(=O)c32)c1OCC (centres undefined)
2. Cc1cc(C(=O)OCC(=O)Nc2ccccc2F)c(C)o1
3. COCC(=O)OCn1nnc2ccccc2c1=O
4. NC(=O)C[n+]1cccc(C(=O)Nc2ccccc2)c1
5. C[C@](N)(Cc1ccc(O)c(O)c1)C(=O)O
6. CCc1ccccc1OCC(=O)Nc1cccc(S(=O)(=O)NC2=NCCCCC2)c1

| Assay by compound | 1 | 2 | 3 | 4 | 5 | 6 |
| --- | --- | --- | --- | --- | --- | --- |
| GLA inh pH 4.5 | 7 | 5 | -1 | x | 3&0&-5 | x |
| miR-21 FLuc | -3% | -42% | -6% | -3% | -9% | x |
| Rango-impB inh | -5.0% | 3.4% | u | 0.8% | u | 3.7% |
| Rango dissoc inh | 11% | -7% | -12% | 13% | -4% | 32% |

7. COc1ccc(N/C=C(\C2OC(=O)c3ccccc32)[N+](=O)[O-])cc1 (centres undefined)
8. Cc1cc2cc(OCc3ccccc3)ccc2n1C
9. COc1cc(/C=C2\C(=O)NN(c3ccccc3)C2=O)ccc1OCC(N)=O
10. O=C(NCCc1ccccc1)C1COc2ccccc2O1 (centres undefined)
11. O=C(Nc1ccc2nc3n(c(=O)c2c1)CCCCC3)C(=O)N1CCN(c2ccccc2)CC1
12. c1ccc(-c2nc3ccccc3c3nncn23)cc1

| Assay by compound | 7 | 8 | 9 | 10 | 11 | 12 |
| --- | --- | --- | --- | --- | --- | --- |
| GLA inh pH 4.5 | 2 | x | -2 | x | x | 1 |
| miR-21 FLuc | 1% | -52% | -7% | -31% | -6% | -4% |
| Rango-impB inh | -1.3% | 4.7% | x | 4.0% | -3.7% | -2.6% |
| Rango dissoc inh | 9% | -17% | x | -2% | -6% | -2% |

Grouped by structure, the compounds so far containing an aryl methoxy group (2)
7. COc1ccc(N/C=C(\C2OC(=O)c3ccccc32)[N+](=O)[O-])cc1 (centres undefined)
9. COc1cc(/C=C2\C(=O)NN(c3ccccc3)C2=O)ccc1OCC(N)=O

| Assay by compound | 7 | 9 |
| --- | --- | --- |
| GLA inh pH 4.5 | 2 | -2 |
| miR-21 FLuc | 1% | -7% |
| Rango-impB inh | -1.3% | x |
| Rango dissoc inh | 9% | x |

Following part.
13. O=C(c1cccc(S(=O)(=O)NCc2ccccc2)c1)N1CCN(c2ccccc2Cl)CC1
14. CCCNC(=O)c1ccc2c(=O)c(O)c(C)[nH]c2c1
15. CC(=O)Nc1ccc(C(=O)N/N=C/c2ccc(F)cc2)cc1
16. O=C(Cc1ccc([N+](=O)[O-])cc1)Nc1ccc(Br)cn1
17. COC(=O)C1CCN(C(=O)COC(=O)C2CCN(S(=O)(=O)c3c(Cl)cccc3Cl)CC2)CC1
18. CCN1CCN(c2nc3sc4c(c3c3ncnn23)CC(C)CC4)CC1 (centres undefined)

| Assay by compound | 13 | 14 | 15 | 16 | 17 | 18 |
| --- | --- | --- | --- | --- | --- | --- |
| GLA inh pH 4.5 | x | -2 | -5[21.1 µM] | x | x | -8 |
| miR-21 FLuc | x | -5% | -2% | -7% | x | -33% |
| Rango-impB inh | -0.4% | 5.3% | 0.9% | 0.4% | 4.5% | 8.2% |
| Rango dissoc inh | 13% | 9% | -8% | 2% | 11% | 10% |

19. O=C(/C=C/c1ccc(F)cc1)N1CC[C@@]2(O)CCCC[C@H]2C1
20. CC(=O)Nc1ccc(NC(=O)COc2ccc(Cl)cc2Cl)cc1
21. N#C/C(=C\c1ccc(OC(F)F)cc1)C(=O)N1CCCCC1
22. Cc1ccc(S(=O)(=O)N(C)CC(=O)OCC(=O)c2ccc3c(c2)NC(=O)CO3)cc1
23. Cc1noc(C)c1NC(=O)N(C)C[C@@H]1Oc2c(NC(=O)c3ccncc3)cccc2C(=O)N([C@H](C)CO)C[C@@H]1C
24. CC(Sc1ccccc1)C(=O)NN=C1CCN(C)CC1 (centres undefined)

| Assay by compound | 19 | 20 | 21 | 22 | 23 | 24 |
| --- | --- | --- | --- | --- | --- | --- |
| GLA inh pH 4.5 | 4 | x | 1 | x | x | -6 |
| miR-21 FLuc | -8% | -59% | -13% | x | x | -2% |
| Rango-impB inh | -0.5% | 1.2% | -1.0% | 0.1% | 4.2% | 2.4% |
| Rango dissoc inh | -16% | -9% | -2% | -20% | -9% | -4% |

25. CC(=O)C[C@@H](O)CC(=O)[C@@H]1OC(=O)[C@@H](C)C/C=C\Cc2ccccc21
26. OCCC1CN(Cc2cc(F)ccc2-n2cccn2)CCN1Cc1ccc(F)cc1 (centres undefined)
27. O=C1/C(=C/c2cccnc2)Oc2cc(OS(=O)(=O)c3ccc(Cl)cc3)ccc21
28. Cc1cc(C)n2cc(COc3ccc4ccccc4c3)nc2n1
29. O=C(NCC1CCCO1)C1CCN(S(=O)(=O)c2cccnc2)CC1 (centres undefined)
30. O=C(NCC1CCCO1)C(=O)N/N=C/c1ccc(O)c(Cl)c1 (centres undefined)

| Assay by compound | 25 | 26 | 27 | 28 | 29 | 30 |
| --- | --- | --- | --- | --- | --- | --- |
| GLA inh pH 4.5 | x | -3 | 0 | 3 | -8 | 5 |
| miR-21 FLuc | x | 5% | 5% | -77% | -6% | -3% |
| Rango-impB inh | -3.4% | 2.4% | -0.1% | -2.7% | 0.3% | 0.2% |
| Rango dissoc inh | -1% | -8% | 1% | 15% | -1% | 1% |

31. O=C(CSC1=N/C(=C/c2ccc(Cl)c(Cl)c2)C(=O)N1c1ccccc1F)NC1CC1
32. CCc1ccccc1N1CC23C=CC(O2)C(C(=O)O)C3C1=O (centres undefined)
33. CCOCCCNc1c2c(nc3cc(-c4ccc(F)cc4)nn13)CCC2
34. COc1ccc(C(=O)c2nccc3cc(OC)c(OC)cc23)cc1OC
35. CN1c2ccccc2C(C)(C)C12C=Cc1cc(O)ccc1O2 (centres undefined)
36. CCc1ccc(CN2CCC(n3nccc3NC(=O)C3CCCC3)CC2)cc1

| Assay by compound | 31 | 32 | 33 | 34 | 35 | 36 |
| --- | --- | --- | --- | --- | --- | --- |
| GLA inh pH 4.5 | 11 | -1 | -1 | x | -20 | x |
| miR-21 FLuc | -6% | -3% | -3% | x | 13% | 6% |
| Rango-impB inh | u | u | -0.2% | 0.5% | u | -0.3% |
| Rango dissoc inh | -25% | 7% | 7% | -7% | -15% | 14% |

37. CC(=O)NS(=O)(=O)c1ccc(NC(=O)CCc2ccccc2)cc1
38. C[C@@H]1CN([C@H](C)CO)C(=O)Cc2cc(NS(=O)(=O)c3ccc(F)cc3)ccc2O[C@H]1CN(C)Cc1ccc(C(=O)O)cc1
39. Cc1c(C(C)(C)C)c(C=S)n2ccccc12
40. CCOc1cc(/C=N/Nc2nc3ccccc3[nH]2)cc(Br)c1OCC(=O)N(C)C
41. CC1CC(C)CN(S(=O)(=O)N2CCCC(C(=O)NC3CCCCC3C)C2)C1 (centres undefined)
42. COc1ccc(NC(=O)C2C(=O)N(CCO)C3(C)CC2c2ccccc2O3)cc1 (centres undefined)

| Assay by compound | 37 | 38 | 39 | 40 | 41 | 42 |
| --- | --- | --- | --- | --- | --- | --- |
| GLA inh pH 4.5 | -4 | x | 4 | -1 | x | -5 |
| miR-21 FLuc | 4% | x | -3% | -2% | -2% | -39% |
| Rango-impB inh | 2.4% | 0.5% | u | 1.1% | 0.3% | -1.3% |
| Rango dissoc inh | 7% | 1% | -27% | 1% | -13% | -5% |

43. Cc1ccc2c(CN(C)Cc3ccccc3)cc(=O)oc2c1C
44. CCOc1ccc(C(=O)COC(=O)c2ccc(-n3cnnn3)cc2)cc1
45. Cc1ccc(NS(=O)(=O)c2ccc(NC(=O)[C@@H]3CCCC[C@@H]3C(=O)O)cc2)c(C)c1
46. COc1ccc(CC(=O)N/N=C/c2cccnc2)cc1OC
47. CC(C)CNC(=O)c1cccc(Cn2cc(Cl)cn2)c1
48. CCN(CC(=O)Nc1c(F)cccc1F)C(=O)CCc1nc2cc(S(=O)(=O)N(C)C)ccc2n1CC

| Assay by compound | 43 | 44 | 45 | 46 | 47 | 48 |
| --- | --- | --- | --- | --- | --- | --- |
| GLA inh pH 4.5 | x | x | -5 | x | -1 | x |
| miR-21 FLuc | -16% | -10% | 1% | -7% | -8% | 2% |
| Rango-impB inh | 0.2% | 5.3% | -4.0% | 0.4% | -0.3% | -0.2% |
| Rango dissoc inh | -6% | -22% | -10% | 1% | 27% | -7% |

49. O=C(COC(=O)c1nc(Cl)ccc1Cl)Nc1ccc2c(c1)OCO2
50. O=C(O)CCN1C(=O)c2ccncc2C1=O
51. CCC(C)c1ccccc1NC(=O)COC(=O)c1ccc2c(c1)S(=O)(=O)c1ccccc1C2=O (centres undefined)
52. COc1ccc(OCCN(C)Cc2ccccc2)cc1

| Assay by compound | 49 | 50 | 51 | 52 |
| --- | --- | --- | --- | --- |
| GLA inh pH 4.5 | 8 | -5 | 2 | 9 |
| miR-21 FLuc | -1% | 0% | 0% | -3% |
| Rango-impB inh | -1.5% | 0.4% | -4.8% | -3.7% |
| Rango dissoc inh | 12% | 1% | 11% | -10% |

In the list so far, 8 have a Cl atom.
13. O=C(c1cccc(S(=O)(=O)NCc2ccccc2)c1)N1CCN(c2ccccc2Cl)CC1
17. COC(=O)C1CCN(C(=O)COC(=O)C2CCN(S(=O)(=O)c3c(Cl)cccc3Cl)CC2)CC1
20. CC(=O)Nc1ccc(NC(=O)COc2ccc(Cl)cc2Cl)cc1
27. O=C1/C(=C/c2cccnc2)Oc2cc(OS(=O)(=O)c3ccc(Cl)cc3)ccc21
30. O=C(NCC1CCCO1)C(=O)N/N=C/c1ccc(O)c(Cl)c1 (centres undefined)
31. O=C(CSC1=N/C(=C/c2ccc(Cl)c(Cl)c2)C(=O)N1c1ccccc1F)NC1CC1
47. CC(C)CNC(=O)c1cccc(Cn2cc(Cl)cn2)c1
49. O=C(COC(=O)c1nc(Cl)ccc1Cl)Nc1ccc2c(c1)OCO2

| Assay by compound | 13 | 17 | 20 | 27 | 30 | 31 | 47 | 49 |
| --- | --- | --- | --- | --- | --- | --- | --- | --- |
| GLA inh pH 4.5 | x | x | x | 0 | 5 | 11 | -1 | 8 |
| miR-21 FLuc | x | x | -59% | 5% | -3% | -6% | -8% | -1% |
| Rango-impB inh | -0.4% | 4.5% | 1.2% | -0.1% | 0.2% | u | -0.3% | -1.5% |
| Rango dissoc inh | 13% | 11% | -9% | 1% | 1% | -25% | 27% | 12% |

Compound activity as filed in PubChem BioAssay.

The list is partial; rates above refer to the full screens.
